VACV Venus inh: qHTS for Stage-Specific Inhibitors of Vaccinia Orthopoxvirus: Venus Reporter Primary qHTS; Vaccinia virus Venus reporter expression, fluorescence; Potency, µM (series often up to 36.5 µM), without a hit: top-dose activity change, negative = inhibition, usual class: inhibitors; 330,000 tested, 0.46% active; active means well fitted inhibition curve with a large enough effect; inconclusive means small, poorly fitted or top-dose-only effect; inactive means no such curve, though single readings can be large or run the other way; tested in A549 cells; note: nearly all actives have a fitted effect of over 30% in size; inactives centre near -10
VACV mCherry inh: qHTS for Stage-Specific Inhibitors of Vaccinia Orthopoxvirus: mCherry Reporter Primary qHTS; Vaccinia virus mCherry reporter infection, fluorescence; about a quarter of the inactives have no number; 310,000 tested, 0.63% active; AID 720579, 2013; Potency, µM (doses to about 36.5 µM), without a hit: at the highest dose activity change, negative = inhibition, hits mostly inhibitors; active = well fitted inhibition curve with a large enough effect; inconclusive = small, poorly fitted or top-dose-only effect; inactive = no such curve, though single readings can be large or run the other way; tested in A549 cells; note: nearly all actives have a fitted effect of over 35% in size; inactives centre near -10
* = called active by the depositor; i = inactive; ? = inconclusive; nt = no result given; & = joins results of further samples; [ ] = another dose, or the depositor's remark. % is set by controls: 0 for no effect and ±100 for the full control effect; potency is the fitted concentration of half-maximal effect. An unsorted share of the library. About 0.88% of those tested had a hit in this group.

molecule	VACV Venus inh	VACV mCherry inh
Cc1nc(C)c(C(=O)Nc2ccc(C)c(F)c2)o1	-18%	-17%
CCN(CC)c1ccc(/C=N\NC(N)=O)cc1	-12%	i
COc1ccc(C(=O)C(C)(C)NO)cc1	-21%	nt
CCOc1cc(C2CC(=O)Nc3cc4c(cc32)OCCO4)ccc1O (configuration not stated)	-11%[7.34 µM]	i[7.34 µM]
COc1ccc(CCNC(=O)Nc2nnc([C@@H]3C[C@H](O)[C@@H](CO)O3)s2)cc1OC	-5%	i
COc1ccc(C(C)C)cc1S(=O)(=O)NCCc1c(C)[nH]c2ccc(C)cc12	-19%	-27%
O=C(O)CCN1C(=O)/C(=C/c2ccc(-c3nc4ccccc4s3)o2)SC1=S	-13%	nt
CN1CCN(c2ccc([N+](=O)[O-])c(Sc3ccccn3)c2)CC1	-15%	-30%

Next section (four carried over from the part before).
molecule	VACV Venus inh	VACV mCherry inh
COc1ccc(CCNC(=O)Nc2nnc([C@@H]3C[C@H](O)[C@@H](CO)O3)s2)cc1OC	-5%	i
COc1ccc(C(C)C)cc1S(=O)(=O)NCCc1c(C)[nH]c2ccc(C)cc12	-19%	-27%
O=C(O)CCN1C(=O)/C(=C/c2ccc(-c3nc4ccccc4s3)o2)SC1=S	-13%	nt
CN1CCN(c2ccc([N+](=O)[O-])c(Sc3ccccn3)c2)CC1	-15%	-30%
Cc1cccc(NC(=O)c2ccc(NCC3CCCO3)c([N+](=O)[O-])c2)c1 (configuration not stated)	-3%	13%
CCN1C(=O)/C(=C2/C=Cc3ccccc3N2C)OC1=S	-13%	-14%
Cc1ccc(CNc2ncnc3nc[nH]c23)cc1	-13%	-1%
O=S(=O)(c1ccc(Cl)cc1)c1nc(-c2ccccc2)oc1N1CCN(c2ccccc2)CC1	-5%	-8%
CCSc1nc(C)nc2sc(C)c(C)c12	-2%	-5%
C=CCNc1nc(NCCNC(C)=O)c2sc(-c3ccccc3)cc2n1	-15%	-14%
CCCCNC(=O)CCC(=O)Nc1ccc2nc(N3CCCCC3)cc(C)c2c1	-12%	?
Cc1oc(-c2cccc(C(F)(F)F)c2)nc1CN1CCN(c2ccccn2)CC1	-13%	-15%
CN(C(=O)COC(=O)c1cccs1)c1ccccc1	-23%	-6%
CC(C)[C@@]1(NC(=O)[C@H]2CC3c4cccc5[nH]cc(c45)C[C@H]3N(C)C2)O[C@@]2(O)C3CCCN3C(=O)[C@@H](Cc3ccccc3)N2C1=O (some centres not stated)	-26%	-31%
CCOC(=O)C(=O)Nc1ccc(S(=O)(=O)N2CCOCC2)cc1OC	-2%	-8%
COc1cccc(NC(=O)c2cnc(SCC(=O)N3CCCc4ccccc43)n(C)c2=O)c1	-16%	-4%
O=C(CS(=O)(=O)c1ccc(F)cc1)Nc1nnc(-c2cccs2)o1	-1%	-1%
CCOc1ccc(N2CC(c3nc(-c4cc(OC)c(OC)c(OC)c4)no3)CC2=O)cc1 (configuration not stated)	-3%	8%
N#CC1CN(C(c2ccccc2)c2ccccc2)C1	-10%	-6%
CSc1nc(N(C)C)nc(N(C#N)CCOC(C)=O)n1	?	?
CCN(C(=O)CCS(=O)(=O)c1cc2[nH]c(=O)c(=O)[nH]c2cc1C)c1ccccc1	-8%	-9%
O=C(Cn1c2ncccc2c(=O)n1-c1ccccc1)Nc1ccc(Cl)cc1C(F)(F)F	-10%[7.34 µM]	-19%[7.34 µM]
CCOc1ccc(S(=O)(=O)n2nc(C)cc2C)cc1	-8%	-13%
CCN(CC)c1nc(N2CCN(C)CC2)nc2ccccc12	-15%	i
C(=C\c1ccncc1)/c1ccccc1	-7%	-15%
Cc1ccc2cc(CCNS(=O)(=O)c3ccc(F)cc3)c(=O)[nH]c2c1	-28%	?
CC(C)(C)N1C(=O)[C@H]2[C@@H](c3ccc(Br)cc3)N3C(=O)N(c4cccc(Cl)c4)C(=O)[C@@]3(C)[C@H]2C1=O	-19%	-6%
CCn1cc(CCC(=O)NCCc2ccccc2)c2ccccc21	-12%	i
Cc1ccc(S(=O)(=O)Nc2cccc(C(=O)NCC(c3ccco3)N3CCCC3)c2)cc1F (configuration not stated)	-11%	-19%
Cc1ccc2c(cnn2C(=O)CCC(=O)N2CCCCC2C)c1 (configuration not stated)	7%	-14%
CC(=O)Nc1ccc(C(=O)OCC(=O)c2cccc([N+](=O)[O-])c2)cc1	-15%	-6%
Cc1c(C(=O)N2CCC(C)(C(=O)NS(=O)(=O)C3CC3)C2)oc2ccccc12 (configuration not stated)	?	?
Cn1c(SCC(=O)Nc2ccc(N3CCOCC3)cc2)nnc1-c1ccccc1	-12%	-22%
O=C(NC1CCN(C(=S)Nc2ccccc2Cl)CC1)C1CCCCC1	-4%	-2%
CC(C)c1ccc2c(c1)CC[C@H]1[C@](C)(CN)CCC[C@]21C	-30%&-10%	?
CCC1=C(OC(=O)N(CC)CC)N2C(=O)OC(=NCCc3c[nH]c4ccccc34)[C@]2(C)[C@H]2C1=CC[C@H]1C(=O)N(C)C(=O)[C@H]12	-5%	-4%
C[C@@H]1O[C@@H](O[C@H]2[C@H](O[C@H]3C[C@]4(C)C(C[C@@H](O)C5C([C@]6(C)CC[C@@H](C(C)(C)O)O6)CC[C@]54C)[C@@]4(C)CC[C@H](O)C(C)(C)C34)O[C@H](CO)[C@@H](O)[C@@H]2O)[C@H](O)[C@H](O)[C@H]1O (some centres not stated)	-4%	i
COC(=O)c1sc2cc(=O)n(-c3cccc(C(F)(F)F)c3)nc2c1O	3%	-2%
O=C(Nc1ccccc1C(=O)Nc1ccc2c(c1)OCO2)c1ccco1	-24%	?
Cc1ccc(S(=O)(=O)c2ncccc2[N+](=O)[O-])cc1	-30%	-20%
CSCCC(NC(=O)c1cccc(C)c1)C(=O)OCC(=O)Nc1c(C)nn(-c2ccccc2)c1C (configuration not stated)	-12%	-9%
O=C(O)c1ccc(Cn2cnc3c(=O)[nH]cnc32)cc1	1%	i
Cn1cc(C(=O)N/N=C/c2cccc(O)c2)ccc1=O	-9%	i
COc1ccc(NC(=O)C/C(C)=N/NC(=O)C(=O)NC2CCCCC2)c(OC)c1	12%	-8%
CCOC(=O)c1ccccc1NC(=O)N1CCC(CN2CCOCC2)CC1	-23%	i
CCn1nc(C(=O)NNC(=O)COc2ccc(OC)cc2)c2ccccc2c1=O	-9%	14%
CCc1ccc(NC(=O)Cn2nnc(C(=O)NCCc3ccccc3)c2N)cc1	9%	1%
CC(=O)c1cccc(N2Cc3ccccc3C2=NC(=O)CCl)c1	-27%	-23%
Cc1cccc(NC(=O)CCCn2nc(C)c3c(C)n(-c4ccccc4)nc3c2=O)c1C	-18%	-21%
O=C(Cc1c[nH]c2ccccc12)N/N=C/c1cccc(F)c1	-14%	-1%
Cc1ccc(S(=O)(=O)N(C)C)cc1NC(=O)COc1ccc(-c2nnco2)cc1	0%	-9%
CCOc1ccc(Oc2cc(N)cc([N+](=O)[O-])c2)cc1	-17%	-20%
CN(c1ccccc1)c1ncnc2c1ncn2C	-10%	-17%
CCCOC(=O)c1cccc(Nc2nc(CCC)cc(=O)[nH]2)c1	-26%	?
COc1ccc2nc(N3CCN(C(=O)c4ccco4)CC3)sc2c1	-11%	-11%
C=CCc1c(C)nc2c(C)cccc2c1SC(=N)N	2%[7.34 µM]	i[7.34 µM]
CCCCCCSC1=C(C#N)C(c2ccc(C)o2)CC(=O)N1 (configuration not stated)	-23%	-1%
CSc1ccccc1C(=O)NCC(c1ccco1)N(C)C (configuration not stated)	-11%	i
CN(C)/C=C/C(=O)c1nnn(C2CCCCC2)c1NC1CCCCC1	-7%	-1%
COC(=O)CN1C(=S)N(c2ccccc2)C(=O)C1CC(=O)Nc1ccc(Cl)cc1 (configuration not stated)	-10%	-20%

Remaining list, next part:
molecule	VACV Venus inh	VACV mCherry inh
CN(Cc1ccccc1)C(CNS(=O)(=O)c1ccccc1)c1ccccc1 (configuration not stated)	-22%	-8%
CCC1CN(C(=O)Nc2cc(C)cc(C)c2)c2ccccc2O1 (configuration not stated)	-19%	-5%
CC(=O)N1C(=O)N(C)C2C1N(C(C)=O)C(=O)N2C (configuration not stated)	-6%	nt
COc1ccc(CCNC(=O)C/C(C)=N/NC(=O)c2cnccn2)cc1	0%[7.34 µM]	i[7.34 µM]
O=C(COC(=O)c1ccccn1)Nc1cc(Cl)ccc1Cl	-14%	-20%[1.46 µM]
COc1cc2c(cc1OC)CN(CC(O)c1ccccc1)CC2 (configuration not stated)	-1%	-14%
O=C1c2ccccc2CN2C(=O)c3ccccc3CN12	-3%	i
Cc1ccc(NC(=O)COC(=O)c2ccccc2OCC(=O)Nc2ccc(Br)cc2)c(Br)c1	-8%	i
COc1ccc(Cl)c2sc(NC(=O)c3ccc(S(=O)(=O)N4CCOCC4)cc3)nc12	9%	13%
C=CCn1c(COc2ccc(Cl)cc2)nnc1SCC(=O)c1c(N)n(C)c(=O)n(C)c1=O	-2%	4%
CC(=O)c1ccc(NC(=O)c2sc(-n3nc(C)c(CCC(C)C)c3C)nc2C)cc1	-2%	5%
COc1ccc(CNC(=O)c2cc(Nc3ccc(OC)cc3OC)nc3ccccc23)cc1	-4%	-4%
CSc1cccc(NC(=O)C2CC(=O)N(c3ccc4c(c3)OCCO4)C2)c1 (configuration not stated)	-21%	-8%
COc1cccc(NC(=O)C(=O)NCC(c2ccc3c(c2)OCO3)N2CCOCC2)c1 (configuration not stated)	-7%	-23%
O=[N+]([O-])c1cc(CN2CCCCCC2)ccc1O	-13%	-12%
CC(C)(C)C(=O)Oc1cc(N)n(S(=O)(=O)c2ccc(F)cc2)n1	-24%	?

Retrieved by compound from above:
molecule	VACV Venus inh	VACV mCherry inh
O=[N+]([O-])c1cc(CN2CCCCCC2)ccc1O	-13%	-12%
CC(C)(C)C(=O)Oc1cc(N)n(S(=O)(=O)c2ccc(F)cc2)n1	-24%	?

(more compounds)
molecule	VACV Venus inh	VACV mCherry inh
O=C(Nc1ccc([N+](=O)[O-])cc1)c1cn(-c2ccccc2)nc1-c1cc2ccccc2o1	-2%	i
CCOc1ccc(NC(=O)C2CCN(S(=O)(=O)c3cccs3)CC2)cc1	?	-2%
CC(C)CN(CC(C)C)c1nc(-c2ccc(Cl)cc2)nc2ccccc12	?	?
CCc1nnc(NC(=O)c2ccc(OC)cc2OC)s1	-8%	-2%
CC1CC(C)(C)NC(=S)N1CCCC(=O)Nc1ccc2c(c1)OCCO2 (configuration not stated)	-5%	-3%
O=C(NCc1cccs1)C1CCN(C(=O)NCc2ccccc2)CC1	-4%	-5%
CCCCCCCC#Cc1ccccc1/C=N/S(=O)c1ccc(C)cc1 (configuration not stated)	?	-26%
NNC(=O)c1csc(CS(=O)(=O)c2ccc(Cl)cc2)n1	5%[7.34 µM]	i[7.34 µM]
Cc1cc(C)nc(SCCS(=O)(=O)Cc2ccccc2)n1	-23%	?
O=C(COc1ccccc1Cl)Nc1ccc(CN2CCCCC2)cc1	-20%	i
Brc1ccc(Nc2nc(-c3cccnc3)cs2)cc1	-7%	-2%
CNc1cc(C(=O)Nc2cccc(OCc3ccccc3)c2)ncn1	-4%	30%[activator]
COc1cccc(NC(=O)Cn2nnc(C(=O)NCc3ccc4c(c3)OCO4)c2N)c1	-3%	-14%
COn1c(C)c(C)c2c3nonc3ccc21	-8%	-14%
Cc1oc2ccc(O)c(CN3CCCCCC3)c2c1C(=O)Nc1cccc(Cl)c1C	-22%	?
NC(=O)c1ccc(N2CCN(S(=O)(=O)c3ccccc3)CC2)c([N+](=O)[O-])c1	2%	0%
CC(=O)NC1=C(Nc2ccc(N(C)C)cc2)C(=O)c2ccccc2C1=O	-8%	?
O=c1[nH]c2ccccc2n1C1CCN(C(c2cc3ccccc3o2)c2nnnn2-c2ccc3c(c2)OCCO3)CC1 (configuration not stated)	?	?
Nc1nc(NCC2CCCO2)nc(Nc2ccc(Cl)cc2)c1[N+](=O)[O-] (configuration not stated)	-9%	-5%
CCOCCCNC(=O)c1ccc(CS(=O)(=O)Cc2ccc(C)cc2)o1	-8%	-18%
Cc1ccccc1CN1C(=O)C(C)N=C(c2ccccc2)c2ccccc21 (configuration not stated)	-14%	-12%
O=C1NC2(CCCC2)C(=O)N1Cc1cc(=O)n2ccsc2n1	-1%	i

A draw from above in order of length of the SMILES, rising.
molecule	VACV Venus inh	VACV mCherry inh
O=C1NC2(CCCC2)C(=O)N1Cc1cc(=O)n2ccsc2n1	-1%	i
Cc1ccccc1CN1C(=O)C(C)N=C(c2ccccc2)c2ccccc21 (configuration not stated)	-14%	-12%
CC(=O)NC1=C(Nc2ccc(N(C)C)cc2)C(=O)c2ccccc2C1=O	-8%	?

Compound activity: PubChem, National Center for Advancing Translational Sciences (NCATS)
